Arbovirus inh – arbovirus infection inhibition; arbovirus infection cell-based antiviral screen; actives 0.37% (n = 200,000); inhibition, % at 10 µM; AID 1251;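 active = inhibition from about 30%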;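 note: bluetongue infection of BSR cells; cell survival read as ATP light after 72 h; 0% = infected wells without compound and 100% = uninfected wells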
Mtb betalactam – beta-lactam sensitization of Mtb H37Rv; M. tuberculosis H37Rv growth with meropenem, percent inhibition; hits of this screen are not shown here; inhibition, % at 25 µM; actives 0.27% (n = 330,000);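 active = about 74% or more and at least 40 points above the plate without the antibiotic, then above 30% in a dose series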;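 note: growth measured after seven days incubation then overnight dye step; 0% = bacteria only wells and 100% = bacteria with antibiotic; twin plates without the antibiotic show which effects depend on it; some results filed as inactive read as strong as hits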
Mtb H37Rv – M. tuberculosis H37Rv growth inhibitors, H37Rv strain (AID 1626). M. tuberculosis H37Rv growth inhibition; higher % means a stronger effect. inhibition, % at 10 µM, or IC50 in µM where a hit was titrated. actives 0.95% (n = 220,000);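 active = confirmed in a dose series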;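 note: bacteria incubated seven days before Alamar blue readout; 0% = bacteria only wells and 100% = bacteria with antibiotic wells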
YopH inh – YopH (Yersinia) phosphatase inhibition. fluorescence Ex485/Em525. inhibition, %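 (about 10 µM by stock and volumes)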. actives 0.16% (n = 140,000);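 active = inhibition of 50% or more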;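 note: controls were vehicle for no effect and minimum signal wells for full effect; inactives centre near -20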
RecA splice inh – inhibitors of M. tuberculosis RecA intein splicing; P9WHJ3; cell-free RecA intein splicing, fluorescence; actives 0.75% (n = 290,000); AID 2221; inhibition, %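 (about 9 µM by stock and volumes)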; in the data active = inhibition above about 30%;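 note: 0% = vehicle wells and 100% = reference inhibitor control wells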
Target sequence (P9WHJ3 whole entry, looked up, canonical isoform): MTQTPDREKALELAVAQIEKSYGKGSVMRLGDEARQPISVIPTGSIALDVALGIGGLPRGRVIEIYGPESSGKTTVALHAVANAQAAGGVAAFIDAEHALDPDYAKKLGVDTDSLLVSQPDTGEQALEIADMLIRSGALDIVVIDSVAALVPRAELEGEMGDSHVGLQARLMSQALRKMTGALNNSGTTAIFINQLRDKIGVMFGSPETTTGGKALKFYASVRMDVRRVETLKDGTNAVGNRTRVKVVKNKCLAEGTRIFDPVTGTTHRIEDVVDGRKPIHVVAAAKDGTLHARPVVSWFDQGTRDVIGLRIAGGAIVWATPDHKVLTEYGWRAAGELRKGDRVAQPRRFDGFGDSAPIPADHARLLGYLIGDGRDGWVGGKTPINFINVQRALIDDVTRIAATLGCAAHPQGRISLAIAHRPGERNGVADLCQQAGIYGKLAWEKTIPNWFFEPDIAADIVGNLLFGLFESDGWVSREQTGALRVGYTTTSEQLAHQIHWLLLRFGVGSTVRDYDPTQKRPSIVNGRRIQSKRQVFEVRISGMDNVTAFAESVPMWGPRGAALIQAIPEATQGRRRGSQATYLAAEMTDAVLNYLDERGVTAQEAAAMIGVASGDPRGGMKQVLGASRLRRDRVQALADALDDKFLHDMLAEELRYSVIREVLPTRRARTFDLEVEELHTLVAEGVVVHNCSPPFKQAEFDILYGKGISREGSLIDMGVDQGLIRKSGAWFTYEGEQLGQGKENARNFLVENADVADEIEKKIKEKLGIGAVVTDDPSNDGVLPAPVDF
Active calls of the source: *; x = not tested or not shown. Only part of the results is shown (hit frequency here may not be typical).

SMILES | Arbovirus inh | Mtb betalactam | Mtb H37Rv | YopH inh | RecA splice inh
C=CCn1c(=NC(=O)CN2C(=O)CCC2=O)sc2cc(S(N)(=O)=O)ccc21 | -2 | -9 | -1% | -5 | 1.4
COc1ccc(C(C(=O)NC2CCCCC2)N(C(=O)c2sc(C)nc2C)c2ccc(C(C)=O)cc2)cc1 (stereo unspecified) | 1 | 12 | 65µM* | -37 | 0.8
COCCNC(=O)C(=O)N/N=C(\C)CC(=O)Nc1ccc2c(c1)OCO2 | -6 | -9 | 1% | x | -0.7
CC1(C)Cc2c(sc3nc(-c4ccccc4)oc(=O)c23)CO1 | -2 | 0 | 2% | -31 | -2.6
O=C(COC(=O)CNC(=O)c1ccccc1F)Nc1ccc2[nH]c(=O)[nH]c2c1 | x | 3 | x | x | -2.9
Cc1ccc(S(=O)(=O)N(C)S(=O)(=O)c2ccc(C#N)cc2)cc1 | x | -3 | x | x | 0.0
Cc1ccc(OCC(=O)N/N=C2/SCC(=O)N2Cc2ccccc2)cc1 | 2 | 2 | -3% | -14 | -0.5
Cc1cc(C)cc(NC(=O)CCc2c(C)nn(-c3ccc(N4CCOCC4)nn3)c2C)c1 | x | 1 | x | x | 0.0
O=c1oc2ccccc2c(O)c1/C=N/c1ccccn1 | 7 | -4 | -3% | -26 | -1.3
Cc1c(NC(=O)c2ccc3c(c2)C(=O)N(Cc2ccco2)C3=O)cccc1C(=O)O | 11 | 2 | 8% | x | -0.9
Cn1c(-c2sccc2OCc2cccc(C(F)(F)F)c2)n[nH]c1=S | -8 | 3 | 12% | x | 0.1
CCCc1nc2n[nH]c(N)c2c2c1CCCC2 | 6 | 3 | 9% | -33 | 3.2
O=C(NNC(=O)c1ccco1)Nc1ccccc1 | x | 1 | x | x | -1.4
COc1ccccc1Cn1c(=S)[nH]c2cc(C(=O)N3CCN(C)CC3)ccc2c1=O | -3 | 47 | 6% | -35 | -0.5
CCC(C)NC(=O)c1ccc2c(c1)S(=O)(=O)c1ccccc1C2=O (stereo unspecified) | x | -8 | x | x | -2.8
Brc1cc2c(cc1Br)OCCOCCOCCO2 | x | -18 | 2% | x | 1.5
CCCCC[C@H]1CN(CCc2ccccc2)C(=O)[C@@H]1CC(=O)NCc1ccc(OC)cc1 | x | 93 | x | x | 8.1
CCc1ccc(NC(=O)N(C2CCCCC2)C(C)c2cccnc2)cc1 (stereo unspecified) | 4 | 47 | 23% | -15 | 6.0
Cc1c(Cl)cnc(NC(=O)CSc2nncs2)c1Cl | -3 | -7 | 5% | -23 | 1.6
O=C(Cc1ccc(-c2ccccc2)cc1)NC1CCCC1 | 6 | -5 | 5% | x | -0.9
CCOP(=O)(CN(CC)C(=O)c1ccccc1Br)OCC | x | 1 | -2% | x | -2.3
N#Cc1ccc(OCC(=O)NC2=NCCS2)cc1 | 1 | 0 | 1% | x | -2.5
CC1=CC(=O)C=C(C)C1=NOC(=O)c1cccc([N+](=O)[O-])c1 | -1 | 69 | 3% | -10 | 1.3
CC(C)Cn1cnc2c(c1=O)c1nc3ccccc3nc1n2Cc1ccc2c(c1)OCO2 | -4 | x | 0% | -32 | x
Cc1ccccc1OCc1ccc(C(=O)N2CC(C)OC(C)C2)o1 (stereo unspecified) | x | -1 | x | x | 2.3
O=C(NCCN1CCN(c2ccccc2)CC1)C1CCN(S(=O)(=O)N2CCOCC2)CC1 | 7 | x | -9% | -26 | x
O=C1CC(N2CCN(C(c3ccccc3)c3ccccc3)CC2)C(=O)N1Cc1ccc(N2CCCC2=O)cc1 (stereo unspecified) | -1 | 9 | -9% | 1 | 4.7
CC(=O)Nc1cccc(C(=O)OC(C(=O)c2ccc(C)cc2)c2ccccc2)c1 (stereo unspecified) | 5 | 70 | -4% | -36 | 13
Cc1ccc(CN(C)C(=O)C2CCCN2C(=O)c2cccs2)o1 (stereo unspecified) | 1 | 4 | -9% | -51 | 1.1
CC(C)N(Cc1nc(-c2ccc(Cl)cc2)no1)C(=O)C(c1ccccc1)c1ccccc1 | -18 | 10 | -4% | 4 | 3.2
Cc1c(Br)c([N+](=O)[O-])nn1CC(=O)NCc1ccccc1 | 0 | -11 | 1% | x | -2.7
Cc1oc(/C=N/NC(=O)CN(c2ccccc2Br)S(C)(=O)=O)cc1Br | 1 | -6 | -9% | -26 | 1.8
CC(=NCc1ccc2c(c1)OCO2)c1c(O)n(Cc2ccccc2)c(=O)[nH]c1=O | x | -7 | 5% | x | -3.2
O=C(Nc1nc(-c2cc(Cl)sc2Cl)cs1)c1cccs1 | -27 | 99 | 51% | -10 | 1.6
CCN(CC)CCCOC(=O)c1ccc(OC)cc1O | 2 | -6 | 4% | x | -0.9
CCOc1cc(/C=C/C(=O)O)ccc1OCCOc1ccccc1 | x | -4 | x | x | -2.3
C/C(=C\C(=O)c1ccccc1)Nc1cccc(O)c1 | 0 | 0 | -7% | -36 | -4.3
Cc1c(NC(=O)C(C)OC(=O)[C@@H](NC(=O)c2ccccc2)C(C)C)c(=O)n(-c2ccccc2)n1C (stereo partly specified) | -1 | -1 | -13% | -38 | -1.2
CCOc1ccccc1CNC(=O)c1ccc2nc(N3CCOCC3)sc2c1 | x | 16 | x | x | -1.1
O=[N+]([O-])c1ccccc1/C=N/NC1=NCCN1 | x | -1 | x | x | -0.3
CCc1c(C)[nH]n(-c2ccc(Oc3ccccc3)c(S(=O)(=O)O)c2)c1=O | 5 | -8 | -9% | -40 | x
CC1=C(C(=O)Nc2ccc(Cl)cc2)C(c2ccncc2)C(C#N)=C(SCC(N)=O)N1 (stereo unspecified) | 17 | 3 | 0% | 7 | 0.0
COc1ccccc1/C=C/C=C1\Oc2c(ccc(O)c2CN(C)C)C1=O | x | -1 | -5% | x | -12
COCCN1CCn2c(nc3cc(NC(C)=O)ccc32)C1 | x | 6 | x | x | -3.1
COc1ccc(CCNC(=O)CSc2nnc(CNC(=O)c3cc(OC)c(OC)c(OC)c3)o2)cc1OC | x | -5 | x | x | -1.2
COc1cc(C(=O)NCC(=O)N/N=C/c2cccs2)cc(OC)c1OC | -3 | -1 | -3% | -29 | 1.6
N#Cc1cn(N2CCCCC2)c(=O)[nH]c1=O | x | 1 | x | x | -1.4
CCC(C)NCC(O)(c1ccc(Cl)cc1)c1ccc(Cl)cc1 (stereo unspecified) | -25 | 6 | 4% | x | -4.2
O=C(c1cnsn1)N1CCN(c2ccccn2)CC1 | 3 | -9 | -15% | -14 | 2.4
CC1(C)CC2(CC(c3cccs3)c3cc(Cl)c(O)cc3O2)NC(=S)N1 (stereo unspecified) | -34 | 2 | x | 6 | 2.4
CCc1ccccc1NC(=O)Nc1ccsc1C(=O)OC | x | 0 | x | x | 3.9
CC(=O)Nc1ccc(NC(=O)CN(C)CCC#N)cc1 | -1 | -8 | -6% | -44 | 1.2
O=C(COc1ccccc1)NCCS(=O)(=O)N1CCN(c2ccccc2)CC1 | x | -9 | x | x | 0.2
CCCc1cc(=O)[nH]c(SCC(=O)N2CCOCC2)n1 | x | -3 | x | x | 1.0
Cc1cc(C)cc(NC(=O)c2cccnc2)c1 | x | 2 | x | x | -2.5
Nc1cc(-c2ccc(Cl)cc2)nn1S(=O)(=O)c1ccc(Cl)cc1 | -6 | -2 | -1% | -48 | 2.7
Cc1ccc(NC2=CC(=O)CC(C)(C)C2)c(N)c1 | 1 | 1 | -1% | -28 | 0.5
COc1ccccc1CN1CCN(C(=O)c2ccncc2)CC1 | -3 | -6 | x | -22 | -2.6
COc1ccc(N(C)C(=O)c2onc3c2CCCC3)cc1 | 5 | 0 | -3% | 5 | 3.4
CCCCC(=O)N=c1sc2cc(S(C)(=O)=O)ccc2n1C | -6 | 2 | x | -46 | -0.8

Grouped by structure, those above with a COOH group (two)
SMILES | Arbovirus inh | Mtb betalactam | Mtb H37Rv | YopH inh | RecA splice inh
Cc1c(NC(=O)c2ccc3c(c2)C(=O)N(Cc2ccco2)C3=O)cccc1C(=O)O | 11 | 2 | 8% | x | -0.9
CCOc1cc(/C=C/C(=O)O)ccc1OCCOc1ccccc1 | x | -4 | x | x | -2.3

More records follow:
SMILES | Arbovirus inh | Mtb betalactam | Mtb H37Rv | YopH inh | RecA splice inh
CCOc1ccccc1NC(=O)Cc1coc2ccc(C)cc12 | -13 | -12 | 9% | x | 7.3
c1cc2c(nn1)CCc1nonc1-2 | 8 | 0 | -1% | -40 | -2.9
COc1cc(C(=O)Nc2c(C(=O)N3CCOCC3)oc3ccccc23)cc(OC)c1OC | x | 4 | x | x | -3.1
O=C(Nc1ccc(N2CCN(C(=O)c3cccs3)CC2)c(Cl)c1)c1ccco1 | 4 | 0 | 8% | -23 | 4.1
COc1ccccc1-c1nnc(SCC(=O)O)n1-c1ccc(C)cc1 | 13 | -6 | 1% | x | -0.9
O=C(COc1ccccc1)NCCc1cnc[nH]1 | x | -1 | x | x | -2.4
CC1CCN(c2ccc([N+](=O)[O-])cc2C(=O)N2CCOCC2)CC1 | x | 6 | x | x | 1.9
CCOc1ccc(CCN2CN(C3CCCCC3)CNC2=S)cc1OCC | x | -6 | 2% | x | -3.6
S=C(NCCC1=CCCCC1)NCc1ccco1 | 16 | -1 | 7% | x | 2.7
CN(Cc1ccco1)C(=O)c1ccc(CNS(=O)(=O)c2ccc3c(c2)C(C)(C)C(=O)N3C)cc1 | x | -3 | x | x | 0.5
Fc1ccc(OCc2nnc(SCCN3CCOCC3)o2)cc1 | 11 | -7 | 4% | 17 | -1.1
Cc1cc([N+](=O)[O-])c(C)cc1-c1ccc(/C=N/NC(=O)c2cccnc2)o1 | 4 | -4 | 1% | x | -0.9
O=C(NNC(=O)c1ccc([N+](=O)[O-])cc1)c1ccncc1 | -1 | -15 | -25% | -34 | 1.6
Cn1cc(Br)c(C(=O)NNC(=O)Cc2ccc(Cl)cc2)n1 | x | -6 | x | x | 0.9
COc1ccc(CCNc2cc(C)nc3c(-c4ccccc4OC)cnn23)cc1OC | x | -4 | x | x | -2.6

Reprinted from the listing, 22 compounds:
SMILES | Arbovirus inh | Mtb betalactam | Mtb H37Rv | YopH inh | RecA splice inh
CCCc1cc(=O)[nH]c(SCC(=O)N2CCOCC2)n1 | x | -3 | x | x | 1.0
Cc1cc(C)cc(NC(=O)c2cccnc2)c1 | x | 2 | x | x | -2.5
Nc1cc(-c2ccc(Cl)cc2)nn1S(=O)(=O)c1ccc(Cl)cc1 | -6 | -2 | -1% | -48 | 2.7
Cc1ccc(NC2=CC(=O)CC(C)(C)C2)c(N)c1 | 1 | 1 | -1% | -28 | 0.5
COc1ccccc1CN1CCN(C(=O)c2ccncc2)CC1 | -3 | -6 | x | -22 | -2.6
COc1ccc(N(C)C(=O)c2onc3c2CCCC3)cc1 | 5 | 0 | -3% | 5 | 3.4
CCCCC(=O)N=c1sc2cc(S(C)(=O)=O)ccc2n1C | -6 | 2 | x | -46 | -0.8
CCOc1ccccc1NC(=O)Cc1coc2ccc(C)cc12 | -13 | -12 | 9% | x | 7.3
c1cc2c(nn1)CCc1nonc1-2 | 8 | 0 | -1% | -40 | -2.9
COc1cc(C(=O)Nc2c(C(=O)N3CCOCC3)oc3ccccc23)cc(OC)c1OC | x | 4 | x | x | -3.1
O=C(Nc1ccc(N2CCN(C(=O)c3cccs3)CC2)c(Cl)c1)c1ccco1 | 4 | 0 | 8% | -23 | 4.1
COc1ccccc1-c1nnc(SCC(=O)O)n1-c1ccc(C)cc1 | 13 | -6 | 1% | x | -0.9
O=C(COc1ccccc1)NCCc1cnc[nH]1 | x | -1 | x | x | -2.4
CC1CCN(c2ccc([N+](=O)[O-])cc2C(=O)N2CCOCC2)CC1 | x | 6 | x | x | 1.9
CCOc1ccc(CCN2CN(C3CCCCC3)CNC2=S)cc1OCC | x | -6 | 2% | x | -3.6
S=C(NCCC1=CCCCC1)NCc1ccco1 | 16 | -1 | 7% | x | 2.7
CN(Cc1ccco1)C(=O)c1ccc(CNS(=O)(=O)c2ccc3c(c2)C(C)(C)C(=O)N3C)cc1 | x | -3 | x | x | 0.5
Fc1ccc(OCc2nnc(SCCN3CCOCC3)o2)cc1 | 11 | -7 | 4% | 17 | -1.1
Cc1cc([N+](=O)[O-])c(C)cc1-c1ccc(/C=N/NC(=O)c2cccnc2)o1 | 4 | -4 | 1% | x | -0.9
O=C(NNC(=O)c1ccc([N+](=O)[O-])cc1)c1ccncc1 | -1 | -15 | -25% | -34 | 1.6
Cn1cc(Br)c(C(=O)NNC(=O)Cc2ccc(Cl)cc2)n1 | x | -6 | x | x | 0.9
COc1ccc(CCNc2cc(C)nc3c(-c4ccccc4OC)cnn23)cc1OC | x | -4 | x | x | -2.6
